Screens (PubChem BioAssay)
GIV-Gai inh = inhibitors of GIV GBA-motif binding to rat Galpha-i3. AID 1224905. percent of control (FP), % (concentration not given with the values). P08753. 210,000 tested, 0.42% active. Galpha-i3/FITC-GIV peptide fluorescence polarization, 90 min; hits give low values; scaled: aluminum fluoride 0%, vehicle 100%;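 active means replicate mean at 85% of control or lower, very high polarization wells dropped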;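 further: wells of about 15 µL received 100 nL stock; the first replicate is given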
Target sequence (P08753 whole entry, looked up): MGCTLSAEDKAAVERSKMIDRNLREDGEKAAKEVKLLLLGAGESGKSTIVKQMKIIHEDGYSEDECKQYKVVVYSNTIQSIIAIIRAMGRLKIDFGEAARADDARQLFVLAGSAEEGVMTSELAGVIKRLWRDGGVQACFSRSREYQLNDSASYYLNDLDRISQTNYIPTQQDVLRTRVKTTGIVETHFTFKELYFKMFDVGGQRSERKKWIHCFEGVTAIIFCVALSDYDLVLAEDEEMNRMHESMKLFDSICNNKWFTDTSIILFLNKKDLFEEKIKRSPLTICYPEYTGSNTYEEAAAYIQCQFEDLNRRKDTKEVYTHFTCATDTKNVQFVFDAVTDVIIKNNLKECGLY
* = called active by the depositor.

nr	Compound	GIV-Gai inh
1	COc1cc(C(=O)NC(c2ccc3c(c2)OCO3)c2cc(Cl)c3cccnc3c2O)cc(OC)c1OC (configuration not stated)	103
2	CCOC(=O)C1=NN(c2ccc(Br)cc2)C2(S1)SC(c1ccccc1)(c1ccccc1)c1ccccc12 (configuration not stated)	104
3	O=C(CSc1ncccc1C(=O)N1CCC(Cc2ccccc2)CC1)Nc1ccc(Cl)cc1	113
4	O=C(Nc1ccccc1Br)N1CCN(C(=O)c2nsc3ccccc23)CC1	104
5	Cc1ccc(-c2noc(C(=O)N3CCCC3)n2)cc1S(=O)(=O)N1CCN(c2ccccc2)CC1	102
6	Cn1c(=O)oc2cc(-c3noc(-c4cc(F)ccc4F)n3)ccc21	101
7	CCS(=O)(=O)c1nc2ccc(NS(=O)(=O)c3cccc(Cl)c3)cc2s1	108
8	Cc1nn(-c2ccccc2)c(N2CCC(C(=O)N3CCCC3)CC2)c1-n1c(C)ccc1C	108
9	Nc1nonc1-n1nnc(C(=O)N/N=C/c2cccc(Cl)c2Cl)c1CN1CCCCCC1	111
10	O=C(Nc1ccccc1F)C1CC(=O)N(c2ccc3c(c2)CCN3C(=O)C2CCC2)C1 (configuration not stated)	98
11	c1ccc(Cc2nc(NCc3cccnc3)c3c4c(sc3n2)CCCC4)cc1	106
12	Cc1ccc(Cc2nc(CCNC(=O)Nc3cc(F)ccc3F)n[nH]2)cc1	105
13	O=C(C1CCCN(c2ncc(-c3cccc(F)c3)cn2)C1)N1CCN(Cc2ccccc2)CC1 (configuration not stated)	102
14	COc1ccc(S(=O)(=O)Nc2ccc3nncn3n2)cc1	101
15	O=C(CN1C(=O)CN(C(=O)NCc2ccccc2)c2ccccc21)NCCCN1CCOCC1	95
16	CCOCCOC(=O)C1=C(C)NC2=C(C(=O)CC(c3cccs3)C2)C1c1cc(OC)c(O)c([N+](=O)[O-])c1 (configuration not stated)	100
17	CCOC(=O)c1ccc(NC(=O)CSc2nc(NCc3ccccc3)c3ccccc3n2)cc1	112
18	Cc1ccc(C(=O)Nc2ccc(C(=O)N3CCC(C(=O)NC(C)C)CC3)cc2)cc1	108
19	CCc1ccccc1NC(=O)CSc1nc2cc(C(=O)NCC3CCCO3)ccc2c(=O)n1CC1CCCO1 (configuration not stated)	121
20	CCOC(=O)C1=C(C)OC(N)=C(C#N)C1c1ccccc1F (configuration not stated)	123
21	Cc1cc2c(cc1S(=O)(=O)N1CCCC1)OCC(=O)N2Cc1noc(C2CC2)n1	98
22	CCOC(=O)c1c(NC(=O)C(C)Sc2nnc(CNC(=O)c3cccs3)n2CCc2ccccc2)sc2c1CCC2 (configuration not stated)	113
23	O=C(COC(=O)C(Cc1ccccc1)N1C(=O)C2C3C=CC(C3)C2C1=O)c1ccc([N+](=O)[O-])cc1 (configuration not stated)	96
24	Cc1ccc(-c2noc(C3CCCN3C(=O)CNC(=O)C(c3ccccc3)c3ccccc3)n2)cc1 (configuration not stated)	97
25	O=C1c2sc3nnc(-c4ccccc4)c(=O)n3c2C(=O)N1c1ccccc1Cl	117
26	COc1cc(NC(=O)c2sc3ncn(CC(=O)N4CCCCC4C)c(=O)c3c2C)cc(OC)c1OC (configuration not stated)	119
27	CCC(C)NC(=O)c1cc2n(n1)CCCC2 (configuration not stated)	102
28	N#Cc1cccc(CN2CCC3(CC2)N=C(C2CC2)NO3)c1	101
29	Cc1c(C)n(-c2ccccc2)c2nc(C(=O)Nc3cccc(F)c3)nc(N3CCCC3)c12	108
30	COc1ccc(-c2[nH]nc3c2C(c2cc(Cl)c(OC(=O)N4CCOCC4)c(OC)c2)C(C#N)=C(N)O3)cc1 (configuration not stated)	107
31	O=C1Nc2ccccc2Oc2ccc(S(=O)(=O)N3CCCc4ccccc43)cc21	106
32	O=C(c1cc(S(=O)(=O)N2CCOCC2)ccc1Sc1ccc(Br)cc1)N1CCCCC1	101
33	CCOC(=O)c1c(CSc2ccccc2)n(-c2ccccc2)c2ccc(OC(C)=O)cc12	103
34	O=C(Nc1ccc(Br)cn1)c1ccc(N2CC3CC(C2)c2cccc(=O)n2C3)c(NC(=O)c2ccncc2)c1 (configuration not stated)	114
35	Cc1cc(NC2CCCC2)n2ncnc2n1	111
36	Cc1ccc(-c2nc3cc(Br)c(C)c(C)c3nc2-c2ccc(C)cc2)cc1	101

A draw from above in order of SMILES length, ascending:
nr	Compound	GIV-Gai inh
27	CCC(C)NC(=O)c1cc2n(n1)CCCC2 (configuration not stated)	102
28	N#Cc1cccc(CN2CCC3(CC2)N=C(C2CC2)NO3)c1	101
12	Cc1ccc(Cc2nc(CCNC(=O)Nc3cc(F)ccc3F)n[nH]2)cc1	105
18	Cc1ccc(C(=O)Nc2ccc(C(=O)N3CCC(C(=O)NC(C)C)CC3)cc2)cc1	108
29	Cc1c(C)n(-c2ccccc2)c2nc(C(=O)Nc3cccc(F)c3)nc(N3CCCC3)c12	108
22	CCOC(=O)c1c(NC(=O)C(C)Sc2nnc(CNC(=O)c3cccs3)n2CCc2ccccc2)sc2c1CCC2 (configuration not stated)	113

6 compounds picked at random from the list so far, as already listed:
nr	Compound	GIV-Gai inh
26	COc1cc(NC(=O)c2sc3ncn(CC(=O)N4CCCCC4C)c(=O)c3c2C)cc(OC)c1OC (configuration not stated)	119
36	Cc1ccc(-c2nc3cc(Br)c(C)c(C)c3nc2-c2ccc(C)cc2)cc1	101
27	CCC(C)NC(=O)c1cc2n(n1)CCCC2 (configuration not stated)	102
25	O=C1c2sc3nnc(-c4ccccc4)c(=O)n3c2C(=O)N1c1ccccc1Cl	117
34	O=C(Nc1ccc(Br)cn1)c1ccc(N2CC3CC(C2)c2cccc(=O)n2C3)c(NC(=O)c2ccncc2)c1 (configuration not stated)	114
30	COc1ccc(-c2[nH]nc3c2C(c2cc(Cl)c(OC(=O)N4CCOCC4)c(OC)c2)C(C#N)=C(N)O3)cc1 (configuration not stated)	107

Remaining list, next part.
nr	Compound	GIV-Gai inh
37	CC(C)NC(=O)C1CCCN1C(=O)c1cccc(NS(=O)(=O)c2ccc3c(c2)CCCC3)c1 (configuration not stated)	109
38	Cc1ccc(-n2c(SCc3nc(-c4ccc(F)cc4)no3)nc3cc4c(cc3c2=O)OCO4)cc1	104
39	O=C(CN1C2=NCCCN2c2ccccc21)c1ccc(Cl)cc1Cl	102
40	CC(C)(C)C1(O)CC(C(F)(F)F)=NN1C(=O)c1ccccc1Br (configuration not stated)	107
41	Cc1cc(C)cc(N2C(=O)/C(=C/c3ccc4c(c3)OCO4)S(=O)(=O)C2c2cccc([N+](=O)[O-])c2)c1 (configuration not stated)	107
42	CCCNC(=O)CC1CCN(S(=O)(=O)c2ccc(Br)s2)CC1	106
43	Cc1ccc(C(=O)N2CCCCC2CCN2CCOCC2)s1 (configuration not stated)	99
44	CCOC(=O)CNC(=O)N1CCOc2ccc(COCc3ccccc3F)cc2C1	107
45	Cc1nc(-c2cccc(-c3noc(C(=O)NCc4cccnc4)n3)c2)cs1	97
46	O=C(Nc1cccc(F)c1)C1Oc2ccccc2NC1=O (configuration not stated)	107
47	CCOC(=O)c1ccc(NC(=O)Cn2cnc3nc(N4CCCC4)ncc3c2=O)cc1	104
48	CCOc1ccc(NC(=O)c2nc(-c3ccc(C)c(S(=O)(=O)N4CCCCC4)c3)no2)cc1	96
49	NC(=O)C1CCN(C(=O)c2ccc3c(c2)nc(SCC(=O)c2ccccc2)n2c4ccccc4nc32)CC1	108
50	Cc1cccc(-c2noc(-c3cccnc3N3CCC(C(=O)NCCc4ccccc4)CC3)n2)c1	99
51	CC(=O)N1c2ccccc2NC(=O)CC1c1ccccc1 (configuration not stated)	105
52	O=S(=O)(c1ccc(-c2ccno2)s1)N1CCCCCC1	101
53	CCc1nnc(-c2ccc(S(=O)(=O)N3CCC(C)CC3)o2)o1	100
54	COc1cc(OC)c(OC)cc1/C=C1\N=C(c2ccccc2Br)OC1=O	213
55	Cc1ccc(N2C(=O)C(N3C(=O)c4ccccc4C3=O)C2c2ccc(N(C)C)cc2)cc1F (configuration not stated)	123
56	CNC(=O)c1ccsc1NC(=O)CS(=O)(=O)c1ccc(Cl)cc1	104
57	CCc1ccc2c(c1)[C@H]1OCCC[C@H]1C(c1ccc(O)c(Cl)c1)N2 (some centres not stated)	100
58	CC1(C(=O)NCc2ccc(Cl)cc2)Cc2ccccc2C(=O)N1CC1CC1 (configuration not stated)	110
59	COc1ccc2c(c1)-c1c(ssc1=S)C(C)(C)N2C(=O)c1ccc(C)cc1	108
60	CCOc1ccc(-n2c(C)nc3cc(C(=O)NCc4ccccc4OC)ccc32)cc1	105

Three entries from above, ordered by the number in GIV-Gai inh, falling.
nr	Compound	GIV-Gai inh
54	COc1cc(OC)c(OC)cc1/C=C1\N=C(c2ccccc2Br)OC1=O	213
51	CC(=O)N1c2ccccc2NC(=O)CC1c1ccccc1 (configuration not stated)	105
56	CNC(=O)c1ccsc1NC(=O)CS(=O)(=O)c1ccc(Cl)cc1	104

Later entries
nr	Compound	GIV-Gai inh
61	Cc1ccsc1-c1nc(CCS(=O)(=O)c2ccccc2)no1	102
62	CC(C)(C)OC(=O)N1CC=C2C(C#N)=C(N)C(C#N)(C#N)C(c3ccsc3)C2C1 (configuration not stated)	153
63	COc1cccc(N=CC23c4ccccc4C(c4ccccc42)C2C(=O)N(c4cccc5ccccc45)C(=O)C23)c1 (configuration not stated)	109
64	Cc1c(-c2nc(C3CCC3)no2)c(S(=O)(=O)NCc2ccco2)c(C)n1C	107
65	CCCCn1nnc(NCc2ccc(-c3ccc(Br)cc3)o2)n1	103
66	Cc1ccc(NC(=O)Nc2nnc(SCC(=O)N3CCc4ccccc43)s2)cc1	100
67	CCc1cc(-c2csc(S(=O)(=O)NCCCN3CCOCC3)c2)on1	107
68	COc1ccc([N+](=O)[O-])cc1NC(=O)c1sc2ncn(CC(=O)Nc3ccc(C)c(Cl)c3)c(=O)c2c1C	107
69	COc1ccc(N2CCN(C(=O)CCCn3c(=S)[nH]c4ccc(Br)cc4c3=O)CC2)cc1	116
70	CCc1ccccc1NC(=O)c1ccc(F)c(S(=O)(=O)N2CCc3ccccc32)c1	111
71	COc1ccc(S(=O)(=O)N2CCc3nc(NC(=O)CC4CCCC4)sc3C2)cc1	105
72	Cc1nn(-c2ccc3nncn3n2)c(C)c1CCC(=O)N1CCN(c2ccccn2)CC1	104
73	Fc1ccc(C2N(c3ccccc3)CCN2c2ccccc2)cc1	104
74	Brc1ccc2c(c1)C1CC(c3ccco3)=NN1C(c1cccs1)O2 (configuration not stated)	162
75	CC(C)n1nccc1-c1csc(S(=O)(=O)N2CCC3(CC2)OCCO3)c1	108
76	COc1ccc(-c2noc(CSc3nccn3-c3ccc(C)cc3)n2)cc1OC	103
77	CCCCCNC(=O)c1cncc(-c2ccc(C)cc2)c1	104
78	COc1ccc(-c2cn(/N=C/c3ccc(Cl)cc3Cl)c(NC(=O)Nc3ccc(F)cc3F)n2)cc1	103
79	CC1=C(C)CS(=O)N(S(=O)(=O)c2ccc(Cl)cc2)C1 (configuration not stated)	111
80	CCOC(=O)c1nnn(-c2nonc2N)c1CN1CCCC1	113
81	Clc1ccc(OCc2nc3c4c(-c5ccccc5)c(-c5ccccc5)oc4ncn3n2)cc1	109
82	Cc1sc(-c2nnc(C(=O)N3CCCC3)o2)cc1S(=O)(=O)N1CCOCC1	99
83	CC1COc2c(N3CCN(C)CC3)c(F)cc3c(=O)c(C(=O)Nc4ccc(F)c(F)c4)cn1c23 (configuration not stated)	111
84	CC(C)c1nn2c(S(=O)(=O)NC3CCCCC3)c(C(C)C)nc2s1	118
85	O=C(Nc1nc(-c2ccccc2)c(C(=O)c2ccccc2)s1)c1ccc2c(c1)OCCO2	104
86	CC1CCc2c(oc3ccc(NS(=O)(=O)c4ccccc4)cc23)C1 (configuration not stated)	106
87	CCCc1nc2sc3c(NCCO)ncnc3c2c2c1COC(C)(C)C2	104
88	CCCCS(=O)(=O)N1CCCN(C2=NS(=O)(=O)C(c3ccc(C)cc3)=C2C)CC1	101
89	CC1(C)CC(=O)C2=C(C1)N(c1sc3c(c1C#N)CCCC3)C(N)=C(C#N)C2c1cccnc1 (configuration not stated)	111
90	CC(C)c1c(C#N)c(N)nc2sc(C(=O)c3ccc(Cl)cc3)c(N)c12	105
91	Cc1nc(-c2csc(S(=O)(=O)N3CCN(c4cccc(Cl)c4)CC3)c2)sc1C	102
92	Cc1ccccc1S(=O)(=O)Nc1ccc(C2(C(=O)NCCC(C)C)CC2)cc1	104
93	O=C(Cc1ccccc1)Nc1c2c(nn1-c1ccc(F)cc1)CSC2	99
94	NC(=O)Cn1c2ccccc2c2ncn(Cc3nc(C4CC4)no3)c(=O)c21	107
95	Cc1cccc(-c2cnc(Nc3cccc(C(=O)NC(C)C)c3)nc2)c1	105
96	CCn1ncc(N)c(N(C)C)c1=O	98
97	Cc1ccc(Cn2c(=O)c3nn(C)cc3n3c(=O)n(Cc4cc(C)ccc4C)nc23)cc1	120
98	CCN(CC)S(=O)(=O)c1ccc2c(c1)cc(C(=O)N1CCN(c3cccc(Cl)c3)CC1)n2C	108
99	O=C(NC1CC1)c1cccc(CN2C(=O)C3CCCN3C(=O)c3ccccc32)c1 (configuration not stated)	101
100	O=C(CN1C(=O)/C(=C2\SC(N3CCOCC3)=NC2=O)c2ccccc21)Nc1cccc(Br)c1	107

Some of the compounds tested (hit frequency here may not be typical).
